VDR inhibitor: vitamin D3 receptor (human) inhibition | VDR-SRC2-3 peptide fluorescence polarization, 2 h | Potency, µM, without a hit: max response, negative = inhibition, usual class: inhibitors | actives 0.93% (n = 400,000); active = well fitted inhibition curve with a large enough effect; inconclusive = small, poorly fitted or top-dose-only effect, or another doubt; inactive = no such curve, though single readings can be large or run the other way; also: series mostly up to about 120 µM
Target sequence (P11473 whole entry, looked up): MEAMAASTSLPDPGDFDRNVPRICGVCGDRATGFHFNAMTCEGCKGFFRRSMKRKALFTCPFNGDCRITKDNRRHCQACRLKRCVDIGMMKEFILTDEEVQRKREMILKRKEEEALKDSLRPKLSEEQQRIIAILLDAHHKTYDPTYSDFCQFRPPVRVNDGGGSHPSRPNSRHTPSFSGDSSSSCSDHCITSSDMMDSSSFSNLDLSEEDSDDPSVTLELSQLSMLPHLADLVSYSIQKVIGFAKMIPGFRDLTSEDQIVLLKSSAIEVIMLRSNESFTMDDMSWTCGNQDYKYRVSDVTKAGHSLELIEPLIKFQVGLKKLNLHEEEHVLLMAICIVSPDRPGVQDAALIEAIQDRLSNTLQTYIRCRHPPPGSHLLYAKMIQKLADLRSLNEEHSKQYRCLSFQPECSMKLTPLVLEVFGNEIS
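FP read-out; VDR + SRC2-3 coactivator peptide; 23 nl compound by pintool; 2 h RT incubation; reagents held at 4 deg C, protected from light.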
Starred values were filed as active, the others as inactive; & = joins results of further samples. % is scaled to controls: 0 for no effect and ±100 for the full control effect; potency is read from the fitted curve at half-maximal effect. These rows are one share of the data, so the mix of outcomes need not match the whole.

What do the screens show for `COc1cccc(/C=N/NC(=O)C[n+]2ccccc2)c1O`?
VDR inhibitor: -7%

How did COc1cccc(C(C(=O)Nc2ccc(F)cc2)N(C(=O)Cn2nnc3ccccc32)C2CC2)c1 (centres undefined) do in these assays?
VDR inhibitor: -19%

What do the screens show for `CCCN1Cc2cccc(C(=O)Nc3ccc(C)cc3)c2C1=O`?
VDR inhibitor: -2%

Results for COc1ccc(CC(=O)Nc2ccc(-c3cn4cccc(C)c4n3)cc2)cc1OC ?
VDR inhibitor: 7%

How did CCCN1CCC(=O)N(CCSc2ccc(NC(C)=O)cc2)CC1 do in these assays?
VDR inhibitor: -19%&-2%

Results for COc1ccccc1CCNC(=O)C(=O)NCC1OCCCN1S(=O)(=O)c1cc(C)ccc1C (centres undefined) ?
VDR inhibitor: 4%

Results for CCNC(=O)c1cc2ccccc2o1 ?
VDR inhibitor: 12%

Results for O=C(CCC(=O)c1ccc(Oc2ccccc2)cc1)Nc1ccc(Cl)cc1Cl ?
VDR inhibitor: 8%

How did O=C(NCCc1ccc(Cl)cc1)c1ccc2nc(CCc3ccccc3)oc2c1 do in these assays?
VDR inhibitor: 3%

What do the screens show for `O=C(Cn1nnc(-c2ccccc2)n1)N/N=C/c1cccc([N+](=O)[O-])c1`?
VDR inhibitor: 7%

Results for COC(=O)C1C(=O)C2=C(CC1C)NC(=O)CC2c1ccc(F)cc1 (centres undefined) ?
VDR inhibitor: -5%

How did Cc1ccc(C(=O)NNC(=O)C(C)Oc2ccc3ccccc3c2)o1 (centres undefined) do in these assays?
VDR inhibitor: 6%

Results for O=C(CSc1nc2ccccc2nc1Cc1ccccc1)N1CCCc2ccccc21 ?
VDR inhibitor: 12%

How did O=[N+]([O-])c1ccc(Cl)cc1NCC1CCCO1 (centres undefined) do in these assays?
VDR inhibitor: 24%

How did COC(=O)[C@@H]1[C@H](CCc2ccccc2)NC(=O)N(Cc2ccccc2)[C@@H]1C do in these assays?
VDR inhibitor: -3%

What do the screens show for `COc1ccc(Cc2nnc(NC(=O)Cn3cnc4c3c(=O)n(C)c(=O)n4C)s2)cc1OC`?
VDR inhibitor: 11%

What do the screens show for `CC(C(=O)N1c2ccccc2CCc2ccccc21)n1nnc(-c2ccc(N(C)C)cc2)n1` (centres undefined)?
VDR inhibitor: -4%

How did Cn1c(C(=O)Nc2ccc3c(c2)OCCO3)cc2sccc21 do in these assays?
VDR inhibitor: 8%

What do the screens show for `Cc1ccc2c(C)c(C(=O)N3CCN(C4CCS(=O)(=O)C4)CC3)oc2c1C` (centres undefined)?
VDR inhibitor: 3%

How did CCCNC(=S)N1CCN(c2nc(-c3ccc(C)cc3)cs2)CC1 do in these assays?
VDR inhibitor: -7%

Results for Cc1ccccc1NC(=O)CSc1ncc2c(n1)-c1ccccc1N(C)S2(=O)=O ?
VDR inhibitor: 1%

How did CC(=O)c1ccc(NC(=O)C2=CC(c3ccco3)=NS(=O)(=O)N2C)cc1 do in these assays?
VDR inhibitor: 0%

Results for COc1ccc(OC)c(C(=O)CSc2nnc(Cc3cccs3)n2C)c1 ?
VDR inhibitor: -6%

Results for O=C(CCCCCN1C(=O)c2cccc3cccc(c23)C1=O)NCCO ?
VDR inhibitor: -14%

What do the screens show for `Cc1ccc(-n2c(SCC(=O)NCc3ccco3)nc3c([nH]c4ccccc43)c2=O)cc1`?
VDR inhibitor: -17%

Results for O=C(c1ccoc1)N1CCCC(CO)(CCCc2ccccc2)C1 (centres undefined) ?
VDR inhibitor: 1%

Results for NC(=O)c1cc(S(=O)(=O)N2CCc3ccccc3C2)cs1 ?
VDR inhibitor: inconclusive

Results for Cc1cccc(Oc2coc3cc(OC(=O)c4cccs4)ccc3c2=O)c1 ?
VDR inhibitor: -2%

Results for COc1ccc(NC(=O)Nc2ccc(C(=O)N3CCOCC3)cc2)c(OC)c1 ?
VDR inhibitor: -7%

How did Cn1nc(C(=O)NNC(=O)C(CCC(N)=O)NS(=O)(=O)c2ccc(Cl)cc2)c2ccccc2c1=O (centres undefined) do in these assays?
VDR inhibitor: 20%

Results for O=S(=O)(c1cccs1)N1CCN(CC(O)COC2CCCc3ccccc32)CC1 (centres undefined) ?
VDR inhibitor: 0%

What do the screens show for `Cc1noc(C(=O)N2CC3(C)CC2CC(C)(C)C3)c1Cl` (centres undefined)?
VDR inhibitor: -5%

Results for Cc1ccc(C(C)C)c(OCC#CCN2CCOCC2)c1 ?
VDR inhibitor: -15%

What do the screens show for `O=C(CSc1nc2cc(Cl)ccc2o1)Nc1ccc(N2CCOCC2)cc1`?
VDR inhibitor: -1%

Results for CC(NC(=O)c1ccco1)C(=O)N1CCN(S(=O)(=O)c2ccccc2C#N)CC1 (centres undefined) ?
VDR inhibitor: -7%

What do the screens show for `Nc1c(C(=O)Nc2ccc(Cl)c(C(=O)O)c2)sc2nc3c(cc12)CCCC3`?
VDR inhibitor: -21%

What do the screens show for `C/C(Cc1ccccc1)=N/NC(=O)CCCC(=O)N/N=C(/C)Cc1ccccc1`?
VDR inhibitor: -3%

What do the screens show for `CC(C)c1ccc(N(CC(=O)N2CCOCC2)S(C)(=O)=O)cc1`?
VDR inhibitor: 5%

How did Cc1cc(C(=O)CSc2nnc(-c3ccc(F)cc3)o2)c(C)n1CC1CCCO1 (centres undefined) do in these assays?
VDR inhibitor: 7%

What do the screens show for `O=C(O)c1ccc(CSc2nnc(-c3ccncc3)n2-c2ccc(Br)cc2)cc1`?
VDR inhibitor: 3%

What do the screens show for `O=C(N/C(=C/c1ccccc1)C(=O)N1CCCCC1)c1ccco1`?
VDR inhibitor: 10%

Results for CC(=O)C1=C(c2ccc(Cl)c(Cl)c2)N(C(C)=O)n2c(nnc2C2CCCCC2)S1 ?
VDR inhibitor: -9%

Results for O=C(CCCn1c(=O)c2sccc2n(CC(=O)OCc2ccccc2)c1=O)NCc1ccco1 ?
VDR inhibitor: 2%

How did CCn1ncc(NC(=S)NCCc2ccccc2)c1C(N)=O do in these assays?
VDR inhibitor: 1%

Results for CC1CN(C(=O)c2ccccc2NS(=O)(=O)c2cccc([N+](=O)[O-])c2)CC(C)O1 (centres undefined) ?
VDR inhibitor: 1%

How did Clc1nc(CN2CCCCC2)nc2sc3c(c12)CCC3 do in these assays?
VDR inhibitor: -17%

Results for O=C(Nc1ccnn1C1CCN(C(=O)Cc2cccc(Cl)c2)CC1)C1CC1 ?
VDR inhibitor: 2%

Results for OCCC1CN(Cc2ccc(C(F)(F)F)cc2)CCN1Cc1ccccc1 (centres undefined) ?
VDR inhibitor: -3%

Results for Oc1ccc2ccccc2c1CNc1ccc(Br)cn1 ?
VDR inhibitor: -2%

What do the screens show for `CC1CCN(c2oc(-c3ccc(COc4ccc(Cl)cc4)o3)nc2C#N)CC1`?
VDR inhibitor: 17%

How did CCOC(=O)CC1=C(C(=O)OCC)C(c2ccc(C)o2)C(C#N)=C(N)O1 (centres undefined) do in these assays?
VDR inhibitor: -8%

How did Cc1cccc(NC(=O)CN2C(=O)CCS(=O)(=O)c3ccccc32)c1C do in these assays?
VDR inhibitor: -10%

How did COc1cccc(-c2ccc3ncnc(NCCN4CCOCC4)c3c2)c1 do in these assays?
VDR inhibitor: 4%

How did COc1ccc(CNC(=O)[C@H](C)NC(=O)C2CCN(C(=O)[C@@H](N)Cc3ccccc3)CC2)cc1 do in these assays?
VDR inhibitor: -9%

Results for O=C(NCc1ccccc1)C1C2C=CC3(CN(Cc4cccnc4)C(=O)C13)O2 (centres undefined) ?
VDR inhibitor: -5%

How did COc1ccc(S(=O)(=O)Nc2nncs2)cc1 do in these assays?
VDR inhibitor: 22%

What do the screens show for `CCCCc1nnc(NC(=O)CSCc2cc(=O)n3c(C)csc3n2)s1`?
VDR inhibitor: -3%

What do the screens show for `CC(=O)Nc1ccc(/C=C/C(=O)c2ccc(-n3nncc3-c3ccccc3)cc2)cc1`?
VDR inhibitor: inconclusive

What do the screens show for `CCOC(=O)N1CCC(NC(=O)c2ccc(NC(=O)C3CCCO3)cc2)CC1` (centres undefined)?
VDR inhibitor: 6%

What do the screens show for `Cc1nn(Cc2nnc(SCC(=O)Nc3ccc(Cl)cc3)n2C)c(C)c1[N+](=O)[O-]`?
VDR inhibitor: -11%

Results for COc1ccc(/C=C(\NC(=O)c2ccc([N+](=O)[O-])cc2)C(=O)N2CCOCC2)cc1 ?
VDR inhibitor: 16%

What do the screens show for `Cc1cccc(C(=O)OCC(=O)N(C)C(c2ccccc2)c2ccccc2)c1[N+](=O)[O-]`?
VDR inhibitor: -15%

Results for CCc1ccccc1NC(=S)N(CCc1ccncc1)C(C)C ?
VDR inhibitor: -29%

How did CCCCOCCCNC(=O)/C=C/c1ccccc1Cl do in these assays?
VDR inhibitor: 17%

What do the screens show for `COc1cccc(NC(=O)NNC(=O)CCc2ccc(O)c(O)c2)c1`?
VDR inhibitor: 3%

What do the screens show for `COc1cccc(OC(=O)N2CCOCC2)c1`?
VDR inhibitor: -12%

What do the screens show for `COc1ccc(CCC(=O)NC(C)C2CCCO2)cc1` (centres undefined)?
VDR inhibitor: -22%

Results for Cc1nc(C(C)NC(=O)c2cc(COc3ccc(F)c(F)c3)on2)cs1 (centres undefined) ?
VDR inhibitor: 5%

How did CCOc1ccccc1OCC(=O)Nc1ccc(OC)c(S(=O)(=O)N2CCCCC2)c1 do in these assays?
VDR inhibitor: 17%

What do the screens show for `COc1ccc(-n2nc(C(=O)NCC(=O)N3CCN(Cc4ccccc4)CC3)c3ccccc3c2=O)cc1OC`?
VDR inhibitor: 4%

What do the screens show for `O=C(CN1CCN(S(=O)(=O)c2ccc(Br)cc2)CC1)N/N=C/c1cccs1`?
VDR inhibitor: 8%

What do the screens show for `COC(=O)C1=C(C)N(Cc2ccc(OC)cc2)C(=O)C1`?
VDR inhibitor: -2%

What do the screens show for `COc1ccccc1Cc1nc2ccccc2nc1SCC(=O)NCCc1ccccc1`?
VDR inhibitor: 14%

Results for CCc1ccc(-n2c(CCC(=O)O)ccc2-c2cccs2)cc1 ?
VDR inhibitor: -22%

Results for Cc1ccc(NC(=O)CCOc2ccccc2C)cc1F ?
VDR inhibitor: -2%

How did CCN(CC)CCCNC(=O)c1c(C)oc2ncn(CC(C)C)c(=O)c12 do in these assays?
VDR inhibitor: 1%

How did COc1ccc(Cl)cc1NC(=O)C(C)Sc1n[nH]c(N)n1 (centres undefined) do in these assays?
VDR inhibitor: 4%

How did CCOc1ccccc1OCCCCCc1c(C)n[nH]c1C do in these assays?
VDR inhibitor: -15%

What do the screens show for `O=C(CS(=O)(=O)c1ccccc1)Nc1nc(-c2ccccc2)cs1`?
VDR inhibitor: 18%

How did Nc1nonc1-c1noc(CCCCCN2C(=O)c3ccccc3C2=O)n1 do in these assays?
VDR inhibitor: -11%

What do the screens show for `CS(=O)(=O)c1ccccc1COC(=O)Nc1ccc(Cl)cc1`?
VDR inhibitor: -17%

Results for O=C(CSc1nc2ccc([N+](=O)[O-])cc2s1)NC1CCS(=O)(=O)C1 (centres undefined) ?
VDR inhibitor: 4%

Results for O=C1CCC([N+](=O)[O-])C(c2ccccc2Br)N1 (centres undefined) ?
VDR inhibitor: -5%

How did NCCc1cnc(-c2cccc(C(F)(F)F)c2)[nH]1 do in these assays?
VDR inhibitor: 1%

How did CCCC(=O)c1cc2c(cc1NC(=O)c1cccs1)OCCO2 do in these assays?
VDR inhibitor: 9%

What do the screens show for `CCc1ccc(NC(=O)Cn2c(=O)n(CCCC(=O)NCCc3ccc(OC)c(OC)c3)c(=O)c3ccccc32)cc1`?
VDR inhibitor: 3%

Results for CCOc1ccc(CCNC(=O)CN2C(=O)NC3(CCCCC3)C2=O)cc1OCC ?
VDR inhibitor: -10%

How did COC(=O)c1sc2ccccc2c1NC(=O)c1coc2ccccc2c1=O do in these assays?
VDR inhibitor: -26%

What do the screens show for `CCc1ccc(-c2nc3c(c(SCc4ccc(F)cc4)n2)Cc2c(CO)cnc(C)c2O3)cc1`?
VDR inhibitor: 6%

What do the screens show for `Cc1ccc(NC(=O)CCNC(=O)c2ccc(Br)cc2)cc1S(=O)(=O)N1CCOCC1`?
VDR inhibitor: -8%

What do the screens show for `O=S(=O)(c1ccc(Cl)cc1)c1nc(-c2ccco2)oc1N1CCCCC1`?
VDR inhibitor: -7%

How did Cn1c(C(=O)NN)cc2cc(OCc3ccccc3)ccc21 do in these assays?
VDR inhibitor: 4%

How did COc1ccccc1NC(=O)COC(=O)CNC(=O)C1CCCCC1 do in these assays?
VDR inhibitor: -6%

Among those listed so far, 13 contain a furan ring, fused or not.
Results for CCNC(=O)c1cc2ccccc2o1 ?
VDR inhibitor: 12%

How did Cc1ccc(C(=O)NNC(=O)C(C)Oc2ccc3ccccc3c2)o1 (centres undefined) do in these assays?
VDR inhibitor: 6%

What do the screens show for `Cc1ccc2c(C)c(C(=O)N3CCN(C4CCS(=O)(=O)C4)CC3)oc2c1C` (centres undefined)?
VDR inhibitor: 3%

How did CC(=O)c1ccc(NC(=O)C2=CC(c3ccco3)=NS(=O)(=O)N2C)cc1 do in these assays?
VDR inhibitor: 0%

What do the screens show for `Cc1ccc(-n2c(SCC(=O)NCc3ccco3)nc3c([nH]c4ccccc43)c2=O)cc1`?
VDR inhibitor: -17%

Results for O=C(c1ccoc1)N1CCCC(CO)(CCCc2ccccc2)C1 (centres undefined) ?
VDR inhibitor: 1%

Results for CC(NC(=O)c1ccco1)C(=O)N1CCN(S(=O)(=O)c2ccccc2C#N)CC1 (centres undefined) ?
VDR inhibitor: -7%

What do the screens show for `O=C(N/C(=C/c1ccccc1)C(=O)N1CCCCC1)c1ccco1`?
VDR inhibitor: 10%

Results for O=C(CCCn1c(=O)c2sccc2n(CC(=O)OCc2ccccc2)c1=O)NCc1ccco1 ?
VDR inhibitor: 2%

What do the screens show for `CC1CCN(c2oc(-c3ccc(COc4ccc(Cl)cc4)o3)nc2C#N)CC1`?
VDR inhibitor: 17%

How did CCOC(=O)CC1=C(C(=O)OCC)C(c2ccc(C)o2)C(C#N)=C(N)O1 (centres undefined) do in these assays?
VDR inhibitor: -8%

How did CCN(CC)CCCNC(=O)c1c(C)oc2ncn(CC(C)C)c(=O)c12 do in these assays?
VDR inhibitor: 1%

What do the screens show for `O=S(=O)(c1ccc(Cl)cc1)c1nc(-c2ccco2)oc1N1CCCCC1`?
VDR inhibitor: -7%
